# LANA-H2B inh – blockers of LANA interaction with H2A/H2B – biochemical, FP readout, HTS, primary screen; Protein LANA1 (Human herpesvirus 8 type P (isolate GK18)), Q9QR71; cell-free LANA-H2A/H2B peptide, fluorescence polarization; inhibition, % (no concentration beside the values); hit rate 0.6% among 320,000; AID 2629, 2010; in the data active means inhibition mostly above about 10%, no sharp cut-off; inactive means mostly below about 6.7%;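 further: stock transfer was 7.5 nL into about 10 µL; 0% = median of vehicle wells and 100% = median of positive control wells; one replicate is shown; the record names a cut of 25% in any replicate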
# UCH37 DUB inh – inhibitors of human UCH37 deubiquitinase, primary screen, biochemical, Ub-AMC cleavage, fluorescence | Ubiquitin carboxyl-terminal hydrolase isozyme L5 (Homo sapiens), Q9Y5K5 | purified proteasome/UCH37 | inhibition, % (test concentration not listed) | hit rate 0.33% among 330,000;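 active means mean of two replicates above 20%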;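 further: 0% = compound-free wells with enzyme and 100% = wells lacking proteasome; stock transfer was 100 nL into about 20 µL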
# Target sequence (Q9Y5K5 whole entry, looked up): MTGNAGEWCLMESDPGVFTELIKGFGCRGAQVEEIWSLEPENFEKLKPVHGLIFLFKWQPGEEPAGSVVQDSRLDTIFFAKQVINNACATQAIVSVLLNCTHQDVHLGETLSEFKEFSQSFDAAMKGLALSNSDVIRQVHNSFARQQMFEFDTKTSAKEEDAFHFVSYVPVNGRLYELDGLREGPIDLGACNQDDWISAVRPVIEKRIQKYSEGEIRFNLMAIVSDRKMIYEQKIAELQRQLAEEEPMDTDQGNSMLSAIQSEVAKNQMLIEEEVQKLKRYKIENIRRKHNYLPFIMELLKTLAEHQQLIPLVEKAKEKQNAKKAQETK
#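 Reagent: Ub-AMC substrate; assay system: Proteasome-associated human UCH37 deubiquitinase; controls: no-proteasome and no-compound wells; read-out: % inhibition of Ub-AMC cleavage fluorescence; timing: 30 min preincubation with enzyme, 25 min cleavage at room temperature; signal: AMC fluorescence from Ub-AMC cleavage, excitation 355 nm, emission 460 nm; buffer or medium: Tris-HCl pH 7.4 plus ovalbumin, ATP-MgCl2, DTT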
# E coli growth – E. coli growth inhibition, primary screen, OD600; hit rate 0.21% among 330,000; OD600 absorbance (no concentration beside the values); Escherichia coli growth, 23 h; hits give low values;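 active means OD600 absorbance below the run mean of sample wells minus 3.6 SD, in any replicate, cut at about 0.56 in these data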;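 further: stock transfer was 300 nL into about 60 µL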
# Vif A3G – inhibitors of Vif binding to APOBEC3G peptide, primary screen, biochemical, TR-FRET, GST-Vif 1-94, biotin-A3G peptide, dose response retest (AID 1117319). inhibition, %, or IC50 in µM where a hit was titrated. hit rate 0.57% among 260,000. TR-FRET GST-Vif / biotin-A3G peptide binding; higher % means a stronger effect; test concentration not given here; strong numbers were not always called active. Virion infectivity factor (Human immunodeficiency virus type 1 group M subtype B (isolate …;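 active means above the screen mean plus three standard deviations and confirmed in dose response; inconclusive means results disagree or hit not tested in dose response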;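 further: Vif residues 1-94 fused to GST binding biotinylated APOBEC3G peptide 110-148; 0% = full assay without inhibitor and 100% = GST in place of GST-Vif; retest series ran down from 100 µM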
# A1 inh – caspase 3/7 activation in MEF A1-2A-BIM cells, primary screen, A1 inhibitor project, cell-based, luminescence, HTS; Caspase-Glo 3/7 luminescence, 3 h; percent of clofoctol response, vehicle zero; AID 2462, 2010; caspase activation, % (test concentration not listed); hit rate 0.066% among 330,000;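 active means over half of replicate activation scores above 10%, or exactly half above 10 with the replicate mean above 10; inconclusive means replicate mean below 10 yet half the replicates above 10; inactive means over half of replicates below 10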;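 further: wells of about 30 µL received 50 nL stock; many hits fall short of the cut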
# B2AR ag – beta2AR agonists driving receptor internalization, primary screen, cell-based, FAP fluorogen, flow cytometry | Am2.2-beta2AR cells; reference of the scale not given here | Beta-2 adrenergic receptor (Homo sapiens), P07550 | hit rate 0.43% among 340,000 | response, % (concentration not given with the values);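 active means response above a set limit, near 3 SD of response in nonfluorescent compounds, cut at about 42% in these data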;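 further: stock transfer was 100 nL into about 11 µL; a reference agonist was the positive control; negative values mostly stem from fluorescent compounds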
# Target sequence (P07550 whole entry, looked up): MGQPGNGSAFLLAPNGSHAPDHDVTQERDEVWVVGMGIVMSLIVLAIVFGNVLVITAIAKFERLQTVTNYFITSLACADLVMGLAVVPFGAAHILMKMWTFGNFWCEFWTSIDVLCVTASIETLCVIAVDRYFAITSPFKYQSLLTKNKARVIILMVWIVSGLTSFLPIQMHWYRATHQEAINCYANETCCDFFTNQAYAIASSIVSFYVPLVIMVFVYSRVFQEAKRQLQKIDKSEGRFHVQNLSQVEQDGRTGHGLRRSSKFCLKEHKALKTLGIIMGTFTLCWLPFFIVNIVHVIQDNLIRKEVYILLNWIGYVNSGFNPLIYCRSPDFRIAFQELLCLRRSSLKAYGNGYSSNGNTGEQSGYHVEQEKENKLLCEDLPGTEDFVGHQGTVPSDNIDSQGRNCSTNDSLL
# HNF4A DNA FP – change in binding of human HNF4A to DNA, primary screen, biochemical, fluorescence polarization, FITC-DNA. 1 h. Hepatocyte nuclear factor 4-alpha (Homo sapiens), P41235. hit rate 0.3% among 360,000. activity change, % at 10 µM. AID 1224865, 2016; in the data active means activity change above about 30%, passing the limit was not always enough;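 further: controls were the assay level and a saturating level of protein; the project sought stronger binding though the title names inhibitors; some compounds called inactive have numbers as strong as hits; positive values seem to mean higher polarization but the record does not say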
# * marks the source's active call; other numbers are inactive results; ? = inconclusive; nt = not tested or not shown.
item	canonical_smiles	LANA-H2B inh	UCH37 DUB inh	E coli growth	Vif A3G	A1 inh	B2AR ag	HNF4A DNA FP
1	Cn1c(-c2ccc3c(c2)OCO3)cnc1NC(=O)CCC(=O)NCCc1ccccc1	0.5	3.0	0.69	-8%	0.3	0	4.0
2	O=C1CC(NCc2ccc(F)cc2)C(=O)N1c1ccccc1 (stereo unspecified)	-1.2	2.2	0.7	-7%	1.1	-7	1.7
3	CC(C)CC1NC(=S)N(C2CCCCC2)C1=O (stereo unspecified)	4.9	5.9	0.74	5%	-0.2	-5	-2.8
4	COc1ccc(-n2c(=S)[nH]c3sc(-c4ccccc4)cc3c2=O)c(OC)c1	-1.3	14	0.71	-44%	-1.1	2	3.4
5	Cc1cccc(C(=O)NC2CCCCCCC2)c1	-1.8	0.0	0.63	8%	-2.0	0	-2.5
6	Cn1c2ccc(Br)cc2c2nnc(SCC(=O)O)nc21	1.8	9.4	0.69	nt	0.1	2	0.6
7	COc1ccc(/C=N/NC(=O)c2cc(-c3ccc(C)cc3C)nc3ccccc23)cc1COC(C)=O	-1.6	nt	nt	-1%	-0.5	-12	-0.6
8	Fc1ccc(-c2nnc(Cc3ccc(Cl)cc3)o2)cc1	0.7	2.2	0.67	-5%	0.3	-12	61*
9	Cn1c(SCc2ccccn2)nc2c1c(=O)[nH]c(=O)n2C	6.5	2.9	0.67	0%	-0.1	-10	2.5
10	CCc1ccccc1NS(=O)(=O)c1ccc(SC)cc1	-1.6	7.1	0.69	0%	-0.3	3	-1.9
11	Cc1ccc(C(=O)N[C@H](C(=O)OCC(=O)Nc2cccc(S(N)(=O)=O)c2)C(C)C)cc1	1.4	3.0	0.7	?	0.8	4	4.2
12	COc1cccc(C(=O)NCC(=O)N/N=C/c2cccs2)c1	2.6	nt	nt	?	0.3	-8	0.4
13	O=c1cc(-c2c(O)c3ccccc3n(Cc3ccccc3)c2=O)[nH][nH]1	1.5	2.8	0.69	29%	-1.2	-6	0.2
14	Cc1c(NC(=O)CN2C(=O)NC3(CCCCC3)C2=O)c(=O)n(-c2ccccc2)n1C	-0.1	5.1	0.7	4%	-0.1	-1	-2.4
15	CC(=O)c1cccc(NC(=O)N2CCC(NC(=O)C34CC5CC(CC(C5)C3)C4)CC2)c1	-1.1	4.8	0.7	-12%	1.0	0	-5.7
16	CC(C)OC(=O)c1cc(-c2ccc(C=O)o2)ccc1Cl	-8.0	1.2	0.66	-12%	0.4	2	4.6
17	O=C1S/C(=C\c2ccc(N3CCOCC3)o2)C(=O)N1c1ccccc1	-27	5.8	nt	?	-0.1	-10	-20
18	Cc1cccc2cc(C(c3nnnn3Cc3ccccc3)N3CCN(C)CC3)c(=O)[nH]c12 (stereo unspecified)	3.5	-17	0.7	-4%	-1.3	-4	2.7
19	Cc1cc2nc(-c3cccc(NC(=O)c4ccc(Br)o4)c3)oc2cc1C	-1.2	0.3	0.73	-8%	0.0	-6	1.4
20	CCN(CC(=O)Nc1c(F)cccc1F)C(=O)Cc1csc(-c2ccc(OC)c(OC)c2)n1	-2.3	-32	0.7	3%	0.8	-1	27
21	COc1ccc(-n2c(=S)[nH]c3[nH]ncc3c2=O)cc1	-1.4	3.7	0.69	nt	1.2	1	4.5
22	C[C@H](NC(=O)OC(C)(C)C)C(=O)NCC1CCC(C(=O)O)CC1 (stereo partly specified)	1.0	1.2	0.71	0%	0.7	-7	4.6
23	Cc1cccc2cc(C(c3nnnn3Cc3ccc4c(c3)OCO4)N3CCCC3)c(=O)[nH]c12 (stereo unspecified)	13	5.4	0.7	?	-0.6	8	-4.9
24	O=C(NCc1ccco1)C(c1ccco1)N(Cc1cccs1)C(=O)Cn1nnc2ccccc21 (stereo unspecified)	-1.2	2.2	0.72	?	1.1	1	-1.7
25	Cc1onc(-c2c(Cl)cccc2Cl)c1C(=O)Nn1cnnc1	1.2	2.1	0.77	-1%	-1.0	7	1.2
26	COc1ccc(Nc2cc(C)nc3c(C)cccc23)cc1OC	-1.4	9.8	0.63	nt	0.5	20	4.9
27	O=C1c2ccccc2C(=O)N1CCOc1ccccc1	-5.3	-0.8	0.73	-3%	-6.9	4	0.4
28	Cc1ccc(/C=C2/Sc3ccccc3N(CC(=O)NCCCOC(C)C)C2=O)cc1	2.9	-52	0.72	0%	-0.5	-15	-5.4
29	CCOC(=O)C1CCN(C(=O)COC(=O)COc2ccc(Cl)cc2)CC1	-1.7	-1.1	0.66	nt	-0.5	-3	-1.9
30	COc1ccc(C(C)=O)cc1Cn1nnc(-c2ccccc2Br)n1	-3.3	1.4	0.71	0%	0.7	2	-2.2
31	Cc1ccc(C)c(-n2cc(CNCCc3cnccn3)c(-c3ccccc3)n2)c1	-0.6	2.9	0.67	9%	0.2	-12	4.8
32	CCn1c(NC(=O)C(C)C)c(-c2cccs2)c(=O)c2ccccc21	-1.4	1.1	0.71	nt	0.1	0	0.2
33	Cc1cc(NS(=O)(=O)c2ccc(NC(=O)C(C)Oc3ccc(Cl)cc3)cc2)no1 (stereo unspecified)	-1.1	0.4	0.75	-1%	1.1	2	-1.3
34	COCc1cc(C)nc2sc(C(=O)OC(C)C)c(N)c12	0.3	-50	0.67	8%	-0.7	-5	-0.1
35	CCC(C)C(=O)Nc1cc(OC)c(OC)cc1C(=O)O (stereo unspecified)	3.1	4.8	0.69	-5%	-0.4	2	-1.2
36	CC1=CC(C)(C)[N+](C)(C)c2ccccc21	0.1	2.9	0.68	nt	-0.3	-1	1.2
37	CC1(C)CC(=O)C=C(c2cccs2)C1	-4.6	6.1	0.7	nt	-0.6	-9	0.8
38	COc1ccc(C2CC(=O)c3cc(OC)ccc3O2)cc1 (stereo unspecified)	nt	-14	0.7	-6%	nt	-2	2.3
39	CN(CC(=O)Nc1cccc(S(=O)(=O)NC2=NCCCCC2)c1)Cc1ccc(C(C)(C)C)cc1	-7.9	0.5	0.6	13%	-0.1	2	5.4
40	CN(Cc1cc(=O)[nH]c2ccccc12)C(=O)c1ccccc1	-3.0	-0.5	0.65	-1%	-0.4	-3	-1.2

# Single records, from the list above.
# Profile of CC1(C)CC(=O)C=C(c2cccs2)C1 → LANA-H2B inh = -4.6; UCH37 DUB inh = 6.1; E coli growth = 0.7; Vif A3G = nt; A1 inh = -0.6; B2AR ag = -9; HNF4A DNA FP = 0.8
# Profile of Cc1ccc(C)c(-n2cc(CNCCc3cnccn3)c(-c3ccccc3)n2)c1 → LANA-H2B inh = -0.6; UCH37 DUB inh = 2.9; E coli growth = 0.67; Vif A3G = 9%; A1 inh = 0.2; B2AR ag = -12; HNF4A DNA FP = 4.8

# Further compounds
item	canonical_smiles	LANA-H2B inh	UCH37 DUB inh	E coli growth	Vif A3G	A1 inh	B2AR ag	HNF4A DNA FP
41	Cc1c(Cl)cccc1NC(=O)COc1ccc(S(=O)(=O)N2CCOCC2)cc1	1.0	0.5	0.65	4%	0.6	13	-0.5
42	CCOc1ccccc1Nc1nnc(SCC(=O)Nc2ccc3[nH]c(=O)[nH]c3c2)s1	-2.4	nt	nt	4%	0.6	7	5.0
43	CCC(C)(C(=O)NC1CCCC1)N(C(=O)c1cnccn1)c1c(C)n(C)n(-c2ccccc2)c1=O (stereo unspecified)	-0.1	3.5	0.74	15%	-0.3	0	2.5
44	O=C(CCCc1ccccc1)c1ccccc1	2.2	4.6	0.68	nt	-4.7	7	3.4
45	Cc1nn(-c2ccccc2)c2c1C(c1ccc(O)c(O)c1)N1C(=N2)C(Nc2ccccc2)=Nc2ccccc21 (stereo unspecified)	3.4	1.2	0.75	?	-0.9	-6	-0.2
46	CCn1c2c(c3cc(Cl)ccc31)CCCC2=O	-1.2	-5.8	0.69	-2%	0.2	1	5.7
47	O=C(CNC(=S)N(Cc1ccccc1F)C1CCCCC1)NCCCN1CCOCC1	-0.5	2.5	0.72	-3%	1.6	-10	0.9
48	O=C(CCCCCN1C(=O)[C@@H]2Cc3ccccc3CN2C1=O)Nc1ccccc1F	4.7	4.6	0.7	4%	-0.1	-17	0.4
49	CN(c1ccccc1)S(=O)(=O)c1cccc(C(=O)Nc2nccs2)c1	2.4	-3.7	0.65	4%	0.2	-6	-0.8
50	Cc1ccccc1Oc1nc2c(C)cccn2c(=O)c1/C=C(\C#N)C(=O)Nc1c(C)n(C)n(-c2ccccc2)c1=O	3.3	-14	0.69	nt	-0.7	15	-1.3
51	Cc1ccc(S(=O)(=O)NN=C2CC3CCC2(C)C3(C)C)cc1 (stereo unspecified)	nt	-2.2	0.68	-12%	nt	-12	-2.9
52	CCn1cc(C(=O)N[C@H](C(=O)O)C(C)C)c(=O)c2cc3c(cc21)OCO3	-0.5	-18	0.069*	-7%	1.7	0	-1.2
53	CCOC(=O)c1n[nH]n(-c2cc(Cl)cc(Cl)c2)c1=O	-1.1	2.0	0.69	-1%	3.2	0	2.9
54	Cc1ccc(C)c(-c2ccc(=O)n(Cc3cccc(Br)c3)n2)c1	-1.9	3.0	0.65	3%	-0.7	5	-2.2
55	COc1cc(/C=N/n2c(C3CCCCC3)n[nH]c2=S)ccc1O	-0.6	nt	nt	-11%	0.4	14	-2.0
56	Cc1ccc(C(=O)Nc2ccc3c(c2)OCCO3)c(Cl)c1	-3.8	3.6	0.67	nt	-7.1	8	2.5
57	Cc1nc(N2CCN(C(=O)c3ccco3)CC2)c2c3c(sc2n1)CCC3	4.0	5.4	0.67	6%	0.6	4	0.0
58	S=C(Nc1cc(Cl)cc(Cl)c1)NC1CCN(Cc2ccccc2)CC1	0.0	4.1	0.62	6%	-0.4	13	1.7
59	Cc1cc(C)n(-c2ccc(C(=O)Nc3cccnc3Cl)cc2)n1	4.6	2.9	0.69	0%	0.8	3	-1.5
60	COc1ccc(OC)c(-n2c(SCC(N)=O)nnc2-c2c[nH]c3ccccc23)c1	5.0	2.9	0.76	1%	-0.6	1	4.9
61	CN1CCN(c2ccc(NC(=O)CSc3nnnn3-c3ccccc3Cl)cc2)CC1	-2.2	1.0	0.6	nt	1.8	6	-1.9
62	CCCN(CCC)CCOc1cc(C)ccc1C(C)C	1.9	3.8	0.68	-12%	0.8	5	-1.6
63	O=C(Cc1c[nH]c2ccccc12)NCc1ccc(Cl)cc1	-4.2	4.6	0.69	nt	0.0	-1	-0.7
64	Cn1c(=NC(=O)c2ccco2)sc2ccccc21	0.7	-8.5	0.66	-5%	-8.1	-14	2.4
65	COc1ccc(Cc2nnnn2CC(=O)O)cc1	0.3	-0.8	0.74	-4%	0.0	-2	-0.8
66	COc1ccc(NC(=O)CC2C(=O)NCCN2C(=O)Nc2ccc(C(F)(F)F)cc2)cc1 (stereo unspecified)	11	0.8	0.67	nt	0.0	4	-0.8
67	O=C(COC(=O)c1ccc(S(=O)(=O)N2CCCC2)cc1)Nc1cccc(F)c1	4.9	1.6	0.68	-13%	0.6	0	-0.8
68	Cc1ccc(S(=O)(=O)N(C)c2ccc(C(=O)Nc3ccccn3)cc2)cc1	3.2	3.1	0.67	-9%	-0.6	5	-0.3

# Assay outcomes from PubChem.
